Tg IFNy HTS: inhibitors of Toxoplasma gondii growth with IFN-gamma; Toxoplasma gondii growth in IFN-gamma-treated host cells; hits give low values; reference of the scale not given here; activity change, negative = inhibition, %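 (about 20 µM by stock and volumes)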; hit rate 3.8% among 69,000; AID 1259416;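 active means below -70%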;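 further: host cells are HeLa cells infected with Toxoplasma gondii; parasite growth read as luciferase light; one replicate is shown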
The depositor's hits bear a star; i = inactive; & = joins results of further samples. An excerpt (hit frequency here may not be typical).

canonical_smiles,Tg IFNy HTS
Cc1noc(C)c1NC(=O)N1C[C@@H](O)COC[C@@H]2O[C@H](CC(=O)N[C@@H]3CCN(Cc4ccccc4)C3)CC[C@H]21,9
CCCc1nc(N2CCc3c(c(CO)nn3C)C2)c2cnn(C)c2n1,-52
CS(=O)(=O)N1CCN(c2ccc3ccc(C(=O)NCC(F)(F)F)cn23)CC1,51
CC1NCCn2c(COCC(=O)N3CCCC3)cnc21 (stereo not drawn),-1
O=C1CN(CCCNc2ncc(F)c(N3CCOCC3)n2)CCN1,-58
Cc1nc(C)c(C(=O)NCCc2cc3nc(-c4ccncc4)ccn3n2)s1,1
Cc1nnsc1CN(C)C(=O)c1ccccc1-c1ncn[nH]1,-9
Cc1ccc(NC(=O)Cn2ncc3c(N4CCCCCC4)ncnc32)cc1F,-101*
O=C(NCCCN1CCCC1)C1CCN(Cc2cc3ccccc3n2Cc2ccccc2Cl)CC1,-40
Cc1ccc(-c2nc(Cn3nnc(-c4nc(-c5cccc(Cl)c5)no4)c3C)c(C)o2)cc1,-37
Cc1cc(C(=O)N2CCC(c3cc4nc5c(c(=O)n4[nH]3)CCCC5)CC2)on1,6
Cc1oc(-c2ccc(C(=O)NCC3COCCO3)cc2)nc1CN1CCN(c2ccccc2)CC1 (stereo not drawn),7
CC(C)CN1C[C@@H]2CCN(C(=O)c3ccccn3)CC[C@H]2S1(=O)=O,5
CCN(CC)C(=O)c1cc(=O)n(CC(=O)Nc2ccc(C)cc2C)c2ccccc12,0
CNC(=O)c1cc(Cl)ccc1Sc1ccccc1COC(C)=O,15
CCOCC1CC2(COCCN2C(=O)c2ccoc2C)CO1 (stereo not drawn),-8
Cc1ccccc1NC(=O)CN(c1cc(Cl)ccc1C)S(C)(=O)=O,-39
O=C(Cn1c(=O)c(S(=O)(=O)c2ccccc2)cc2ccccc21)NCc1ccccc1,18
CCOC(=O)c1nc(NCCc2ccc(OCC)c(OCC)c2)c2ccccc2n1,-2
CC(=O)c1cccc(NC(=O)Nc2nc(SCc3ccc(F)cc3)ns2)c1,-107*
NCCCCCCNS(=O)(=O)c1cccc2ccccc12,3
O=C(CCc1ccccc1)NCCc1csc(-c2ccc(Cl)cc2)n1,45
O=C(Nc1ccccc1)N1CCCC2(CCCN2Cc2cccc(F)c2)C1 (stereo not drawn),5
O=C(NCc1ccc2c(c1)OCO2)c1cc2cc(Cl)ccc2[nH]1,-11
CCSC[C@H](N)C(=O)N1CCC(c2nn(C)c(=O)n2-c2ccccc2)CC1,-4
CCOC(=O)[C@@]12CCCN(Cc3ccccn3)C[C@@H]1CN(S(C)(=O)=O)C2,-23
Cc1cccc(C(=O)N2CCC(C(=O)NCCc3csc(C)n3)CC2)c1,21
CCNC(=O)[C@@H]1CCCN1C(=O)[C@H](CCCN=C(N)N)NC(=O)[C@H](CC(C)C)NC(=O)[C@@H](COC(C)(C)C)NC(=O)[C@H](Cc1ccc(O)cc1)NC(=O)[C@H](CO)NC(=O)[C@H](Cc1c[nH]c2ccccc12)NC(=O)[C@H](Cc1cnc[nH]1)NC(=O)C1CCC(=O)N1 (stereo partly drawn),19
COc1ccc(NC(=O)N2CCC(c3nc(C(=O)N4CCCC4)c(C)o3)CC2)cc1,-4
COC(=O)Nc1ccc(S(=O)(=O)Oc2ccc(C)cc2-n2nc3ccccc3n2)cc1,22
O=C(c1cc(F)ccc1F)C1CCCN(Cc2ccc(-n3cccn3)cc2)C1 (stereo not drawn),-9
CC1CCN(c2ncnc3c2cnn3CC(=O)Nc2ccc3c(c2)OCCO3)CC1,160
Cc1ncc(CN(C)Cc2csc(-c3cccs3)n2)[nH]1,-6
COCC1c2c(cnn2CC2CCOCC2)CCN1Cc1ccc(C)o1 (stereo not drawn),46
C=CCn1cc(CN2CCc3[nH]cnc3C2Cc2ccccc2)cn1 (stereo not drawn),-6
CN(C)CC(=O)N1[C@H](C#N)[C@H](c2ccccc2-c2ccccc2F)[C@@H]1CO,-10
CO[C@H]1CCN(C(=O)c2ccc3[nH]ccc3c2)[C@H]1Cc1cnn(C)c1,-3
COc1cccc(CNC(=O)N2CCC(c3nc(C(=O)N4CCOCC4)c(C)o3)CC2)c1,26
CO[C@@H](CN(C)C(=O)C1CCOCC1)[C@@H](C)CN(C(=O)Nc1ccc(C(F)(F)F)cc1)[C@H](C)CO,-53
COc1cccc2c1C(=O)O/C2=C/c1ccc2c(c1)OCO2,456
COc1cccc(-c2cc(C(=O)N3CCCCC3CCN3CCCC3)[nH]n2)c1 (stereo not drawn),23
CCc1ccc(C(=O)N2CCn3nnc(COCc4cccnc4)c3C2)cc1,-32
COCC1CN(C(=O)c2ccc3c(c2)OCO3)Cc2cncn2C1 (stereo not drawn),9
COc1cc(NC(=O)c2nc(Nc3ccccc3)c3ccccc3n2)cc(OC)c1,-22
CC(C(=O)N(C)CCC(C)(C)O)n1cc(Cl)cn1 (stereo not drawn),9
Cc1cccnc1-c1ccc2c(c1)CC(CNC(=O)/C=C/c1ccc(F)cc1F)O2 (stereo not drawn),-50
COc1ccc(CCNC(=O)C2CCN(S(C)(=O)=O)CC2)cc1,-46
COc1ccc(S(=O)(=O)N(C)C[C@H]2Oc3c(NC(=O)c4nc5ccccc5s4)cccc3C(=O)N([C@@H](C)CO)C[C@@H]2C)cc1,-78*
COc1ccc(CN2[C@@H]3CNc4ccccc4[C@@H]3[C@@H]2CO)cc1,-38
Cc1nnsc1CN(C)Cc1[nH]c2ccc(F)cc2c1C,-28
CCCC(CCC)C(=O)OC1C[C@H]2CC[C@@H](C1)[N+]2(C)C (stereo partly drawn),16&7
CCCCNC(=O)Nc1cccc(-c2nnco2)c1,-13
CN1CCCCN2[C@@H](CO)[C@H](c3ccc(-c4ccc(F)cc4)cc3)[C@@H]2C1,-41
O=C(c1nc2ccccn2c1CNC(c1ccccc1)c1ccccc1)N1CCCC1,10
CN1CCCN(c2ncccc2CNC(=O)c2c[nH]c3ccccc23)CC1,-42
CCNC(=O)c1sc2cc(C)ccc2c1Cl,79

Following part.
canonical_smiles,Tg IFNy HTS
COc1ccc(-c2nc(C)c(CCNS(=O)(=O)c3ccc(F)cc3)s2)cc1OC,i
COc1cc(CNC(=O)C2(C)CCN(C(=O)c3cccc(F)c3)CC2)cc(OC)c1,4
COC(=O)c1coc(CN2C[C@H]3CC=C(C)C[C@H]3C2)n1,-61
CC(C)NC(=O)[C@]12CCO[C@@H]1CCN(c1ncc(F)cn1)C2,0
Cc1oc(C2CCN(S(=O)(=O)c3ccc(Cl)s3)CC2)nc1C(=O)N1CCCC1,-63
COC(=O)c1sccc1S(=O)(=O)NC1CCS(=O)(=O)C1 (stereo not drawn),-8
CC(C)Cn1cncc1CNc1nc(CCN)nc2ccccc12,6
CSc1ccc(CN(C(=O)c2ccc(C)cc2)C2(C(=O)NCc3ccccc3)CCN(C(C)=O)CC2)cc1,0
Cc1ncsc1-c1cc(CN2CCC(NC(=O)Cc3cccnc3)CC2)n(C)n1,-17
Cc1cc(C)c(CSc2nccn2C)c(C)c1,64
COc1ccccc1CNC(=O)CC1N=C2c3ccccc3N=C(SCc3ccc(Cl)cc3)N2C1=O (stereo not drawn),8
COCC(=O)N1Cc2nnn(C)c2C(COCc2ccccn2)C1 (stereo not drawn),3
COCCn1cnc2nnc3ccc(C(=O)Cc4ccccn4)cc3c21,-39
Cc1cnn(C(C)CNC(=O)c2cc(COc3cccc(F)c3)[nH]n2)c1 (stereo not drawn),-44
CC(C)NC(=O)N[C@@H]1CC[C@@H](CC(=O)NCCCN(C)C)O[C@H]1CO,-1
CC(C(=O)N1CCCC(COc2ccccc2F)C1)n1cc(Cl)cn1 (stereo not drawn),3
COCCCNC(=O)c1nc(Nc2ccc(C)cc2)c2ccccc2n1,-36
Cc1oc(C2CCN(C(=O)Nc3ccc4c(c3)CCC4)CC2)nc1C(=O)N1CCCC1,-58
CNC(=O)c1cnc2n1CCN(c1cc(C(F)(F)F)ncn1)C2,0
CCC(C(=O)NCc1cccnc1)n1c2ccccc2c2cnn(C)c(=O)c21 (stereo not drawn),255
C[C@@H]1O[C@@H](Oc2c(-c3cc(O)c(O)c(O)c3)oc3cc(O)cc(O)c3c2=O)[C@@H](O)[C@H](O)[C@H]1O,-8
CCc1c(C)cc(C(=O)N2CCCC(O)(CN(C)C)C2)c(=O)n1C (stereo not drawn),11
COCCN=C1Nc2ncccc2NC12CCN(C(=O)c1sccc1C)CC2,-26
CC(C)NC(=O)N1[C@@H](CO)[C@H](c2ccccc2)C12CN(C(=O)c1ccccn1)C2,-33
Cn1c(=O)[nH]c2ncn(C)c2c1=O,10&12
CCc1csc(N2[C@H](C#N)[C@H](c3ccccc3-c3ccc(F)cc3)[C@H]2CO)n1,27
O=C(NCC[C@H]1CC[C@@H](NC(=O)C2CCOCC2)[C@@H](CO)O1)c1cc(Cl)cc(Cl)c1,36
CN1C(=O)c2cc(NC(=O)Cc3cccs3)ccc2OC[C@@H]2O[C@@H](CC(=O)NCCc3ccncc3)CC[C@H]21,-1
COC(=O)c1c(NCc2ccc(F)cc2F)c2cccc(Cl)c2[nH]c1=O,-76*
CN(C)C1CCN(S(=O)(=O)Cc2ccccc2)C(C(=O)O)C1 (stereo not drawn),-30
Cc1cc(C)n(-c2ccc(Sc3ccccn3)nn2)n1,-21
COc1ccc(-c2nc(NCCc3ccc(SC)cc3)c3ccccc3n2)cc1,-70
Cc1ccccc1-c1cc(O)c2c(c1)CN(CCn1nccc1C)CCO2,-6
CCOc1ccccc1NC(=O)c1nc(Nc2ccc(Cl)cc2)c2ccccc2n1,-64
O=C1CCC2(CCCO2)CCN1Cc1cncn1C1CC1 (stereo not drawn),42
Cc1ccc(-c2ccc(C(=O)NCCC3CN(C)CCO3)o2)cc1 (stereo not drawn),6
COc1ccccc1-c1noc(-c2c(O)c3ccc(F)cc3n(C)c2=O)n1,43
Cn1c(=O)cc(N2CCCC(N)C2)n(Cc2cc(F)ccc2C#N)c1=O (stereo not drawn),5
CC(C)c1cc(C2CCN(C(=O)c3c4c(nn3C)CCCC4)CC2)[nH]n1,-8
COc1cccc(NC(=O)c2c(O)c3cccnc3n(-c3ccccc3)c2=O)c1,90
CC(C)n1c(C(=O)Nc2cccc(F)c2)nc2c1CCN(Cc1ccccc1)C2,-30
CC(C)Oc1ccc(C2CC(=O)N(Nc3ccccc3)C2=O)cc1 (stereo not drawn),21
CCc1ccc(S(=O)(=O)N2CCC3(CC2)COCCN(Cc2cccnc2)C3)cc1,-14
CCN1CCC2(CC1)OC(=O)C(C)=C2C(=O)Nc1ccccc1Cl,34
O=C(Cn1c(-c2ccco2)cc2cccnc21)NCCOc1ccccc1,95
CCOC1COC2(CCN(C(=O)Cc3ccccn3)CC2)C1 (stereo not drawn),204
CC(C)c1csc(NC(=O)C2CN(S(C)(=O)=O)c3ccccc3O2)n1 (stereo not drawn),8
Cc1cc(C)cc(S(=O)(=O)N2CCC3(CC2)NCCN=C3NCc2cccc(F)c2)c1,18
CCCCNC(=O)CCC1N=C2c3ccccc3N=C(SCc3ccc(C)cc3C)N2C1=O (stereo not drawn),3
Cc1ccc(CN2CCC3(CC2)c2ncc(-c4cccc(F)c4)n2CCN3C)o1,1
CCN1C(=O)CCc2cc(NC(=O)/C=C/c3ccc(C)cc3)ccc21,-10
COc1ccc(S(=O)(=O)Nc2ccc3c(c2)CC(=O)N([C@@H](C)CO)C[C@@H](C)[C@@H](CN(C)Cc2ccc(C(=O)Nc4ccccc4N)cc2)O3)cc1,-8
O=C(Cn1ncc2c(N3CCCC3)ncnc21)Nc1ccccc1Br,-10
CC(C)C(=O)NCc1csc(C2CCN(C(=O)Cc3ccccc3Cl)CC2)n1,-53
Cn1c2ccccc2n2c(=O)c3c(=O)oc4ccccc4c3nc12,12
CN1CC2(CCCN(Cc3ccc(S(C)(=O)=O)cc3)C2)OC1=O (stereo not drawn),4

Pulled by structure from the list above (2):
canonical_smiles,Tg IFNy HTS
CCCCNC(=O)CCC1N=C2c3ccccc3N=C(SCc3ccc(C)cc3C)N2C1=O (stereo not drawn),3
CN1CC2(CCCN(Cc3ccc(S(C)(=O)=O)cc3)C2)OC1=O (stereo not drawn),4

Further compounds
canonical_smiles,Tg IFNy HTS
O=C1NCCN(C(=O)c2ccc(Cn3cnnn3)cc2)C1c1cccc(F)c1 (stereo not drawn),1
O=C(CN1CCN(C(=O)N2CCCCC2)CC1)Nc1cc(Cl)ccc1Cl,-47
O=C(C[C@@H]1CC[C@H]2[C@@H](COC[C@H](O)CN2Cc2ccc(C(F)(F)F)cc2)O1)N1CCc2ccccc2C1,-27
OCC1(CCc2ccccc2)CCCN(c2cnc3ccccc3n2)C1 (stereo not drawn),-8
O=C(O)Cn1nnnc1-c1ccc(F)cc1,3

Reformatted: 4 of the compounds above
O=C1NCCN(C(=O)c2ccc(Cn3cnnn3)cc2)C1c1cccc(F)c1 (stereo not drawn)
  Tg IFNy HTS = 1

O=C(CN1CCN(C(=O)N2CCCCC2)CC1)Nc1cc(Cl)ccc1Cl
  Tg IFNy HTS = -47

O=C(C[C@@H]1CC[C@H]2[C@@H](COC[C@H](O)CN2Cc2ccc(C(F)(F)F)cc2)O1)N1CCc2ccccc2C1
  Tg IFNy HTS = -27

OCC1(CCc2ccccc2)CCCN(c2cnc3ccccc3n2)C1 (stereo not drawn)
  Tg IFNy HTS = -8

Assay outcomes: PubChem BioAssay, Broad Institute
